Compound activity from PubChem BioAssay.
Vaccinia pol inh: inhibitors of vaccinia virus processive DNA synthesis (E9 polymerase) | in vitro processive DNA synthesis, absorbance read-out; active compounds read low; some inactives read as strong as hits | 0.94% of 46,000 active | normalized absorbance, % (no concentration beside the values) | AID 493162;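 active = replicate mean up to 90% and picked by the depositor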;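 note: 100% = median of the test wells of a plate; 100 nL library stock went into each well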
* marks the source's active call; other numbers are inactive results. The list is partial; rates above refer to the full screens.

O=C(Cn1c(=O)n(-c2ccccc2)c(=O)c2sccc21)NCc1ccco1
  Vaccinia pol inh: 100

N#Cc1c(-c2cccc(O)c2)c(C#N)c2nc3ccccc3n2c1N
  Vaccinia pol inh: 100

Cc1cc(=O)oc2c1cc(NC(=O)c1ccccc1)c1occ(OC(=O)c3ccccc3)c12
  Vaccinia pol inh: 100

N#CC(C#N)=C(N)COc1cccc(C(F)(F)F)c1
  Vaccinia pol inh: 110

COC(=O)c1cc(S(=O)(=O)Nc2nn(C)c3ccccc23)oc1C
  Vaccinia pol inh: 94

Cc1ccc(OCc2cn3cccnc3n2)cc1
  Vaccinia pol inh: 101

Nc1c(-c2ccccc2)cnn1-c1ccc2c(C(F)(F)F)cc(C(F)(F)F)nc2n1
  Vaccinia pol inh: 101

O=C(CCn1c(=O)sc2ccccc21)n1c(=O)sc2ccccc21
  Vaccinia pol inh: 96

O=C(O)CC1Oc2ccccc2NC1=O (stereo unspecified)
  Vaccinia pol inh: 82

O=c1cc(C(F)(F)F)nc2c(-c3ccccc3)c(C(F)(F)F)[nH]n12
  Vaccinia pol inh: 76

COC(=O)/C=C1\S/C(=N\S(=O)(=O)c2ccccc2)N(c2ccccc2)C1=O
  Vaccinia pol inh: 100

COc1ccc(CCNC(=O)c2cnn3ccccc23)c(OC)c1OC
  Vaccinia pol inh: 98

CCOc1ccccc1C(=O)NCC(=O)O
  Vaccinia pol inh: 97

CCC/C(O)=C1/C(=O)CC(c2ccccc2)CC1=NCc1ccccc1 (stereo unspecified)
  Vaccinia pol inh: 94

O=C(Oc1ccc(Br)cc1)c1cccnc1
  Vaccinia pol inh: 98

O=C(/C=C/c1cccs1)Nc1ccc(F)cc1F
  Vaccinia pol inh: 99

CCOC(=O)c1cnn(-c2ccccc2)c1-n1cccc1
  Vaccinia pol inh: 102

Cc1c(C(=O)/C=C/N(C)C)nnn1-c1ccc(F)c(Cl)c1
  Vaccinia pol inh: 112

CC(C)(C)c1ccc(NC(=O)Nc2ccc3c(c2)OCCO3)cc1
  Vaccinia pol inh: 101

CCc1cccc(C)c1NC(=O)c1cccc2c1C(=O)N(Cc1cccnc1)C2
  Vaccinia pol inh: 104

COc1ccc(CCNC(=O)c2c(Cl)nc3sccn23)cc1
  Vaccinia pol inh: 100

CC(C)CNc1nc2ccccc2s1
  Vaccinia pol inh: 108

O=C(O)c1ccc(Nc2ccnc3cc(Cl)ccc23)cc1
  Vaccinia pol inh: 100

CCC(C)CCCCC(=O)NC(CCN)C(=O)NC(C(=O)NC(CCN)C(=O)NC1CCNC(=O)C(C(C)O)NC(=O)C(CCN)NC(=O)C(CCN)NC(=O)C(CC(C)C)NC(=O)C(Cc2ccccc2)NC(=O)C(CCN)NC1=O)C(C)O (stereo unspecified)
  Vaccinia pol inh: 100

COc1ccc(-c2cc(C3CC3)nc3sc(C(N)=O)c(N)c23)cc1
  Vaccinia pol inh: 99

CC(O)c1cccc(NC(=O)c2cnn3c2NC(c2cccs2)CC3C(F)(F)F)c1 (stereo unspecified)
  Vaccinia pol inh: 99

O=C1CCC(=O)N1CNc1ccccn1
  Vaccinia pol inh: 108

CCOC(=O)c1c[nH]n(-c2ccccc2)c1=O
  Vaccinia pol inh: 97

CC(C(=O)O)n1c2ccccc2c2cnn(C)c(=O)c21 (stereo unspecified)
  Vaccinia pol inh: 96

CCN1CCN(Cc2ccc(N)cc2)CC1
  Vaccinia pol inh: 106

Next section (4 carried over from the part before).
O=C1CCC(=O)N1CNc1ccccn1
  Vaccinia pol inh: 108

CCOC(=O)c1c[nH]n(-c2ccccc2)c1=O
  Vaccinia pol inh: 97

CC(C(=O)O)n1c2ccccc2c2cnn(C)c(=O)c21 (stereo unspecified)
  Vaccinia pol inh: 96

CCN1CCN(Cc2ccc(N)cc2)CC1
  Vaccinia pol inh: 106

COc1cccc(NC(=S)N(CCC#N)/N=C/c2ccc3c(c2)OCO3)c1
  Vaccinia pol inh: 90

Cc1noc(C)c1C(=O)N1CCc2sccc2C1c1ccc(C(F)(F)F)cc1 (stereo unspecified)
  Vaccinia pol inh: 98

CCOC(=O)COc1ccc2c(C#N)c3ccccn3c2c1
  Vaccinia pol inh: 87

O=C(NCc1ccc(Cl)cc1)c1ccc(Cn2c(=O)[nH]c3ccsc3c2=O)cc1
  Vaccinia pol inh: 94

O=C(NC1CCCC1)c1ccc(S(=O)(=O)N2CCCCCC2)cc1
  Vaccinia pol inh: 105

NC(=O)COC(=O)C12CC3CC(CC(Br)(C3)C1)C2
  Vaccinia pol inh: 97

O=C(O)c1ccc(CCO)s1
  Vaccinia pol inh: 99

Cc1ccccc1-c1c(C)oc2cc(O)ccc2c1=O
  Vaccinia pol inh: 100

CCC12CC3CC(Br)(C1)CC(C(=O)O)(C3)C2 (stereo unspecified)
  Vaccinia pol inh: 102

O=C(CNS(=O)(=O)c1cccs1)N1CCCCC1
  Vaccinia pol inh: 105

N#Cc1c(/N=C/c2cc(Cl)cc(Cl)c2O)sc2c1CCC2
  Vaccinia pol inh: 100

COC(=O)/C(=C/N(C)C)Sc1cc(C)c(Cl)cc1Cl
  Vaccinia pol inh: 84

Clc1ncnc2c1ncn2C1CCCCO1 (stereo unspecified)
  Vaccinia pol inh: 100

Cc1ccc(C(=O)Oc2cccc(Cl)c2)cc1
  Vaccinia pol inh: 101

CCOC(=O)c1c(-c2ccccc2)csc1N
  Vaccinia pol inh: 94

Of the compounds above, these contain a carbonyl joined to an NH by a bond outside any ring:
O=C(Cn1c(=O)n(-c2ccccc2)c(=O)c2sccc21)NCc1ccco1
  Vaccinia pol inh: 100

Cc1cc(=O)oc2c1cc(NC(=O)c1ccccc1)c1occ(OC(=O)c3ccccc3)c12
  Vaccinia pol inh: 100

COc1ccc(CCNC(=O)c2cnn3ccccc23)c(OC)c1OC
  Vaccinia pol inh: 98

CCOc1ccccc1C(=O)NCC(=O)O
  Vaccinia pol inh: 97

O=C(/C=C/c1cccs1)Nc1ccc(F)cc1F
  Vaccinia pol inh: 99

CC(C)(C)c1ccc(NC(=O)Nc2ccc3c(c2)OCCO3)cc1
  Vaccinia pol inh: 101

CCc1cccc(C)c1NC(=O)c1cccc2c1C(=O)N(Cc1cccnc1)C2
  Vaccinia pol inh: 104

COc1ccc(CCNC(=O)c2c(Cl)nc3sccn23)cc1
  Vaccinia pol inh: 100

CCC(C)CCCCC(=O)NC(CCN)C(=O)NC(C(=O)NC(CCN)C(=O)NC1CCNC(=O)C(C(C)O)NC(=O)C(CCN)NC(=O)C(CCN)NC(=O)C(CC(C)C)NC(=O)C(Cc2ccccc2)NC(=O)C(CCN)NC1=O)C(C)O (stereo unspecified)
  Vaccinia pol inh: 100

COc1ccc(-c2cc(C3CC3)nc3sc(C(N)=O)c(N)c23)cc1
  Vaccinia pol inh: 99

CC(O)c1cccc(NC(=O)c2cnn3c2NC(c2cccs2)CC3C(F)(F)F)c1 (stereo unspecified)
  Vaccinia pol inh: 99

O=C(NCc1ccc(Cl)cc1)c1ccc(Cn2c(=O)[nH]c3ccsc3c2=O)cc1
  Vaccinia pol inh: 94

O=C(NC1CCCC1)c1ccc(S(=O)(=O)N2CCCCCC2)cc1
  Vaccinia pol inh: 105

NC(=O)COC(=O)C12CC3CC(CC(Br)(C3)C1)C2
  Vaccinia pol inh: 97

Next section
NC(N)=NC(N)=NCc1ccccc1
  Vaccinia pol inh: 100

Cc1cc(NCCO)c2cc(O)ccc2n1
  Vaccinia pol inh: 96

O=S(=O)(/N=c1/cc(-c2ccccc2)ss1)c1ccccc1
  Vaccinia pol inh: 100

N#Cc1cc(C#N)c(SCC(=O)NCc2ccco2)nc1N
  Vaccinia pol inh: 100

CC1CCN(c2nnc(NC(=O)c3csc4c3CCCC4)s2)CC1
  Vaccinia pol inh: 103

COc1ccc(C(=O)N2c3ccccc3N3C(c4c(C)cc(C)cc4C)=NON23)cc1
  Vaccinia pol inh: 100

CCN(CC)c1ccc2cc(C(N)=O)c(=Nc3cccc(C)c3)oc2c1
  Vaccinia pol inh: 100

CCCCN1C(=O)C2ON(c3ccccc3)C(c3cc(Br)ccc3O)C2C1=O (stereo unspecified)
  Vaccinia pol inh: 97

O=c1c2c3c(sc2nc(SCCO)n1-c1ccccc1)CCCC3
  Vaccinia pol inh: 95

Cc1[nH]c2ccccc2c1C(O)c1ccncc1 (stereo unspecified)
  Vaccinia pol inh: 91

OCc1csc(=Nc2ccccc2)n1-c1ccccc1
  Vaccinia pol inh: 120

NS(=O)(=O)c1ccc(N(S(=O)(=O)c2ccccc2)S(=O)(=O)c2ccccc2)cc1
  Vaccinia pol inh: 110

CC1(C)CC(NC(=O)c2ccccc2C(=O)NC2CC(C)(C)NC(C)(C)C2)CC(C)(C)N1
  Vaccinia pol inh: 101

Cc1ccc(C2(CCN=Cc3ccccc3)CCOC(C)(C)C2)cc1 (stereo unspecified)
  Vaccinia pol inh: 100

Cc1ccc(C(=O)OCC(=O)Nc2c(F)c(F)c(F)c(F)c2F)s1
  Vaccinia pol inh: 100

CCN(CC)C(=S)Oc1ccccc1C(=O)Nc1ccc(Cl)c(Cl)c1
  Vaccinia pol inh: 105

Cc1cc(C)cc(OCC(=O)OCC(=O)NC2CC2)c1
  Vaccinia pol inh: 104

CCC(C(=O)NCc1ccc2[nH]c(C)cc2c1)c1ccccc1 (stereo unspecified)
  Vaccinia pol inh: 100

O=C(c1ccc2c(c1)N(Cc1ccccc1)CCS2)N1CCC2(CC1)OCCO2
  Vaccinia pol inh: 96

COc1ccccc1N1CCN(S(=O)(=O)c2ccc3[nH]cc(C(=O)O)c(=O)c3c2)CC1
  Vaccinia pol inh: 75

O=C(Cc1ccccc1)NCc1nc2ccccc2n1Cc1ccccc1F
  Vaccinia pol inh: 98

Cc1cc(C)c(C(N)=O)c(NCCc2ccccc2)n1
  Vaccinia pol inh: 99

CC(=O)Nc1ccc(-c2cnc[nH]2)cc1
  Vaccinia pol inh: 96

N#Cc1c(-c2ccccc2)cc(C2CC2)nc1SCC(=O)O
  Vaccinia pol inh: 95

O=C(Sc1cccc2ncccc12)c1ccccc1
  Vaccinia pol inh: 101

O=C1CC(c2ccccc2)C(=O)N1c1ccc(F)cc1 (stereo unspecified)
  Vaccinia pol inh: 100

CC1(C)Cc2c(sc3nc(CCCc4ccccc4)n(N)c(=O)c23)CO1
  Vaccinia pol inh: 101

N#Cc1ccsc1NC(=O)c1ccc2ncsc2c1
  Vaccinia pol inh: 108

O=C(O)C(C(=O)OCc1ccccc1)c1ccccc1 (stereo unspecified)
  Vaccinia pol inh: 100

CC1CN(C(=O)CCSc2ccc(Cl)cc2)CC(C)O1 (stereo unspecified)
  Vaccinia pol inh: 88

Cc1c2cnn(CC(=O)O)c(=O)c2c(C)n1Cc1ccccc1F
  Vaccinia pol inh: 91

COc1cc2ncnc(NCCCn3ccnc3)c2cc1OC
  Vaccinia pol inh: 85

CC(=O)Nc1cc2c(cc1N)OCCO2
  Vaccinia pol inh: 90

COc1ccc(N2CCCC2=O)cc1
  Vaccinia pol inh: 107

CCCc1nc2ccccc2n1CC(=O)O
  Vaccinia pol inh: 101

N#C/C(=C\c1ccc(C(F)(F)F)cc1)c1csc2ccccc12
  Vaccinia pol inh: 99

NC(=O)c1ccccc1NC(=O)CC1(CC(=O)O)CCCC1
  Vaccinia pol inh: 102

O=S(=O)(CCSc1ccc(C(F)(F)F)cn1)c1ccc(OC(F)(F)F)cc1
  Vaccinia pol inh: 102

NC(=O)CSc1ccc2nnc(-c3ccccc3)n2n1
  Vaccinia pol inh: 101

O=C(NCC1CCCO1)c1ccc2c(=O)n(-c3ccccc3)c(=S)[nH]c2c1 (stereo unspecified)
  Vaccinia pol inh: 96

O=C(O)CNC(=O)C1CCCCC1
  Vaccinia pol inh: 103

Cc1[nH]nc2c1/C(=N\O)CC(c1ccccc1)C2 (stereo unspecified)
  Vaccinia pol inh: 93

N#CC1=C(N)Oc2cc(N)ccc2C1c1ccccc1 (stereo unspecified)
  Vaccinia pol inh: 100

Clc1ccc(CN2CCN(c3cccc4[nH]ccc34)CC2)c(Cl)c1
  Vaccinia pol inh: 111

COc1ccc(-c2noc(CCC(=O)NCCN3CCN(c4ccccc4F)CC3)n2)cc1
  Vaccinia pol inh: 105

Cn1c(C(F)(F)F)nc2c(=O)oc3ccccc3c21
  Vaccinia pol inh: 100

COc1ccc(CCNC(=O)CSc2ccc(C)cc2)cc1OC
  Vaccinia pol inh: 100

CC(Oc1ccc(OCc2ccccc2)cc1)C(=O)O (stereo unspecified)
  Vaccinia pol inh: 106

Cc1ccc(C2CC(c3c(F)cccc3Cl)n3nc(N)nc3N2)cc1 (stereo unspecified)
  Vaccinia pol inh: 100

O=C(Oc1ccccc1N1CCOCC1)c1sccc1Br
  Vaccinia pol inh: 82

Cc1nc2ccccc2n1CC(=O)N(c1ccccc1)C(C)C
  Vaccinia pol inh: 101

COc1ccc(C2=NNC(=O)c3ccccc3C2)cc1
  Vaccinia pol inh: 83

Cc1cccc(C(=O)Nc2nnc(/N=C/c3ccc(Br)s3)s2)c1
  Vaccinia pol inh: 94

c1ccc(CN2CCC3(CC2)Nc2ccccc2S3)cc1
  Vaccinia pol inh: 90

O=C1O[C@@H](CO)[C@H](O)[C@@H](O)[C@@H]1O
  Vaccinia pol inh: 95

COC(=O)C1CCCN1C(=O)C12CC3CC(CC(C3)C1)C2 (stereo unspecified)
  Vaccinia pol inh: 100

CCCc1cc(C(=O)N(C2CCCCC2)C2CCCCC2)no1
  Vaccinia pol inh: 95

COC(=O)c1ccccc1NC(=O)CC1(c2ccc(Cl)cc2)C(=O)c2ccccc2C1=O
  Vaccinia pol inh: 94

COc1ccc(-c2nnn(-c3cccc(C(F)(F)F)c3)c2N)cc1OC
  Vaccinia pol inh: 112

CCc1nnc(Cn2nnc3c(=O)[nH]c(C(=O)Nc4ccc(C)cc4)nc32)s1
  Vaccinia pol inh: 110

Nc1noc(-c2ccccc2)n1
  Vaccinia pol inh: 101

Cc1c(C(=O)c2ccc(F)cc2)oc2ccccc12
  Vaccinia pol inh: 104

O=C(CCN1CCN(Cc2ccccc2)CC1)Nc1ccc2c(c1)OCO2
  Vaccinia pol inh: 101

CCn1c(=O)c(C(C)Nc2ccco2)c(O)c2ccccc21 (stereo unspecified)
  Vaccinia pol inh: 100

C=CCSc1nc(N)c(C#N)c(-c2ccc(C)cc2)c1C#N
  Vaccinia pol inh: 98
